# H5N1 CPE: MDCK cell protection from H5N1 avian flu. cytopathic effect, luminescence, 72 h; stronger effect = higher value; no value below 0 was filed and about half of the inactive calls have no number; reference of the scale not given here. inhibition, % at 50 µM. 96,000 tested, 0.07% active. AID 740; in the data active = inhibition above about 25%
# Active calls of the source: *; i = inactive. Some of the compounds tested; count on the stated rates, not on these rows.
No.	mol	H5N1 CPE
1	O=C1CCN=C(Nc2ccc(F)cc2)N1Cc1ccccc1	i
2	CCn1c(-c2ccsc2)nc2c1c(=O)[nH]c(=O)n2Cc1ccccc1	2.8
3	CC(=O)Nc1ccc(N2C(=O)CSC2c2ccc(F)cc2)cc1 (configuration not stated)	0.5
4	COc1ccc(-c2nn3c(-c4ccccc4)nnc3s2)cc1OC	i
5	COC(=O)c1ccsc1NC(=O)CSc1nnnn1Cc1ccccc1	0.7
6	Cc1ccc2c(c1)c(-c1ccccc1)nc1nncn12	3.7
7	CC(Sc1nnc(Cn2c(=O)sc3ccccc32)n1C)c1ccccc1 (configuration not stated)	3.2
8	CCN(C(=O)CCS(=O)(=O)c1ccc(Br)cc1)c1ccc2c(c1)OCO2	0.1
9	O=C(CN1C(=O)c2cccc3cccc(c23)C1=O)N1CCN(Cc2ccc3c(c2)OCO3)CC1	1.0
10	COc1ccc(-n2c(SCCC(=O)O)nnc2-c2ccncc2)cc1	i
11	Cc1ccc(C(C(=O)NC2CCCC2)N(C(=O)Cc2cccs2)c2ccc3c(c2)OCCO3)cc1 (configuration not stated)	i
12	CC1=C(C)CC(C(=O)NCCc2ccccc2)C(C(=O)O)C1 (configuration not stated)	i
13	CCOc1ccc(N2C(=O)CC(n3nc(C)cc3C)C2=O)cc1 (configuration not stated)	i
14	C=CCC(NC(C)c1ccccc1)c1ccco1 (configuration not stated)	i
15	CCn1c2ccccc2c2nc3cc(S(=O)(=O)N4CCOCC4)ccc3nc21	i
16	Cc1ccc2nc(C(O)C(O)c3nc4ccc(C)cc4[nH]3)[nH]c2c1 (configuration not stated)	0.7
17	CN(CC(=O)NC1CCCCCCC1)S(=O)(=O)c1cccc2cccnc12	3.4
18	O=C(Nc1cccc(-c2nc3ncccc3o2)c1)c1cc2ccccc2o1	i
19	O=C1c2ccccc2N2C(=O)c3ccccc3[C@H]2N1c1ccccc1	1.9
20	CCOc1cc(S(=O)(=O)N2CCN(c3ccc(F)cc3)CC2)c(OCC)cc1-n1cnnn1	0.5

# Looked up above:
# O=C(CN1C(=O)c2cccc3cccc(c23)C1=O)N1CCN(Cc2ccc3c(c2)OCO3)CC1 | H5N1 CPE: 1.0
# O=C1c2ccccc2N2C(=O)c3ccccc3[C@H]2N1c1ccccc1 | H5N1 CPE: 1.9
# CCOc1cc(S(=O)(=O)N2CCN(c3ccc(F)cc3)CC2)c(OCC)cc1-n1cnnn1 | H5N1 CPE: 0.5
# CCn1c(-c2ccsc2)nc2c1c(=O)[nH]c(=O)n2Cc1ccccc1 | H5N1 CPE: 2.8

# Of the compounds above, 2 contain a COOH group:
No.	mol	H5N1 CPE
10	COc1ccc(-n2c(SCCC(=O)O)nnc2-c2ccncc2)cc1	i
12	CC1=C(C)CC(C(=O)NCCc2ccccc2)C(C(=O)O)C1 (configuration not stated)	i

# Next compounds:
No.	mol	H5N1 CPE
21	CC1Cc2ccccc2N1C(=O)Cn1c(=O)oc2cc(S(=O)(=O)NC3CCCC3)ccc21 (configuration not stated)	0.6
22	CN(C)c1ccc(C(=O)N2CC(=O)N(CCc3ccccc3)C(=O)C2)cc1	0.2
23	Cc1n[nH]c(=O)n1-c1ccc(Oc2ccccc2)cc1	i
24	CNC(=O)c1nnc(Cc2ccc(Cl)cc2)o1	0.4
25	CCCCN1C(=S)SC(C)(C)C1/[N+]([O-])=C/c1cccnc1 (configuration not stated)	i
26	CCOC(=O)CSc1nnc(CCc2nc3ccccc3[nH]2)n1C	0.3
27	CC(C)OC(=O)CC12CN3CC(CC(=O)OC(C)C)(CN(C1)C(=O)c1ccccc1C3=O)C2=O	0.1
28	CCCC(=O)Nc1ccc2nc(SCC(=O)Nc3ccc(N4CCOCC4)c(Cl)c3)sc2c1	i
29	CCC(C)(C)n1nnnc1C(c1ccc(OC)c(OC)c1)N1CCN(c2ccc(OC)cc2)CC1 (configuration not stated)	0.9
30	CCCn1c(CCC(=O)Nc2ccccc2Cc2ccccc2)nc2cc(S(=O)(=O)N3CCOCC3)ccc21	i
31	CCSc1nnc(-c2ccc(S(=O)(=O)NCc3cccs3)cc2)o1	i
32	CCC(NC(=O)c1cccc(Cn2cc([N+](=O)[O-])cn2)c1)c1ccc(C(C)C)cc1 (configuration not stated)	i
33	O=C(NC1=NCCS1)c1cccc(NC(=O)c2ccco2)c1	i
34	COc1ccc(OC)c(S(=O)(=O)Nc2c(F)cccc2F)c1	i
35	C/C=C/COc1nc2c(c(=O)n(C)c(=O)n2C)n1C	i
36	CCC(CO)n1c(SCc2cc(=O)oc3cc(C)ccc23)nc2ccccc2c1=O (configuration not stated)	1.8
37	O=C(Nc1nc2nc(-c3ccccc3)cc(-c3ccccc3)n2n1)c1ccco1	i
38	CCn1c(=O)cc(SCC(=O)Nc2ccc(OC)c(OC)c2)c2ccccc21	0.7
39	CCN(CC)S(=O)(=O)c1cccc(-c2nnc(SCCCC(=O)c3ccc(F)cc3)o2)c1	0.5
40	COCCN(CCOC)Cc1c(C)[nH]c2c(C)c(C)ccc2c1=O	i

# In the list so far, these contain an aryl methoxy group:
No.	mol	H5N1 CPE
4	COc1ccc(-c2nn3c(-c4ccccc4)nnc3s2)cc1OC	i
10	COc1ccc(-n2c(SCCC(=O)O)nnc2-c2ccncc2)cc1	i
29	CCC(C)(C)n1nnnc1C(c1ccc(OC)c(OC)c1)N1CCN(c2ccc(OC)cc2)CC1 (configuration not stated)	0.9
34	COc1ccc(OC)c(S(=O)(=O)Nc2c(F)cccc2F)c1	i
38	CCn1c(=O)cc(SCC(=O)Nc2ccc(OC)c(OC)c2)c2ccccc21	0.7

# (next part)
No.	mol	H5N1 CPE
41	COc1ccc(-n2c(SCC(=O)Nc3ccccc3)nnc2-c2ccc(NS(=O)(=O)c3ccc(C)cc3)cc2)cc1	i
42	O=C(CSc1nnc(-c2ccccc2)o1)Oc1ccc(Br)cc1	i
43	CCOc1ccc(-c2noc(CCCC(N)=O)n2)cc1OC	1.1
44	Cn1c(=O)cc(OCC(=O)NCc2cccnc2)c2ccccc21	0.8
45	O=c1c2ccc(Cl)cc2nc(-c2cccc(C(F)(F)F)c2)n1O	3.2
46	COc1cccc(NC(=O)CSc2nnc(Cn3c(=O)sc4ccccc43)n2C)c1	i
47	COc1ccc(OC)c(NC(=O)c2ccc(NC(C)=O)cc2)c1	i
48	CN(C(=O)CSc1nc(N)nn1-c1ccccc1)c1ccccc1	0.6
49	O=C(CCC(=O)OCC(=O)c1ccc(F)cc1)NC1CCCCC1	0.4
50	O=C(CCSCCc1ccccn1)Nc1ccc(Br)cn1	0.2
51	CCNS(=O)(=O)c1ccc(OCCNS(C)(=O)=O)cc1	1.9
52	CCCc1cc(=O)[nH]c(Nc2cc(OC)ccc2OC)n1	0.9
53	CC(C)c1nc(SCC(=O)c2ccccc2)c2c(=O)n(C)c(=O)n(C)c2n1	3.2
54	Cn1cnnc1SC(C(=O)Nc1cc(Cl)cc(Cl)c1)c1ccccc1 (configuration not stated)	i
55	CN(C)S(=O)(=O)c1cccc(NC(=O)Cn2cnc3ccccc3c2=O)c1	0.2
56	CCOC(=O)c1sc2nc(NC(=O)C3CC3)sc2c1C	0.6
57	O=c1ccc(/C=C/c2ccccc2)nn1Cc1ccc(Cl)cc1Cl	i
58	CCOCCCNC(=O)c1ccc2c(c1)OCO2	i
59	COc1cccc(C(O)c2nc3ccccc3n2C(C)C)c1 (configuration not stated)	2.8
60	CCOC(=O)c1c(CN2CCOCC2)n(-c2ccccc2)c2ccc(O)cc12	2.8
61	O=S(=O)(NCCc1csc(-c2ccccc2)n1)c1ccc2c(c1)OCCO2	i
62	CC(OC(=O)c1cc2sccc2n1C)C(=O)NCC1CCCO1 (configuration not stated)	0.3
63	O=C(Nc1scc(-c2ccccc2)c1C(=O)O)c1ccco1	i
64	O=c1[nH]c(-c2ccccc2)c(-c2ccccc2)[nH]1	2.2
65	Cc1ccc(-c2c(=O)n(OCc3ccccn3)c3ccccc3[n+]2[O-])cc1	i
66	c1ccc(CSc2nnc(-c3sccc3-n3cccc3)o2)cc1	0.8
67	N#Cc1nc(COc2ccccc2)oc1N1CCN(c2cccc(Cl)c2)CC1	2.0
68	Cc1ccc(C(=O)CCC(=O)O)cc1	i
69	O=C(NCc1ccco1)c1scc2c1OCCO2	i
70	CCN(CC)c1nc(C)c(C(C)=O)cc1C#N	1.6
71	CCC1(C)Cc2c(sc3c2c(=O)n(-c2ccccc2)c(=O)n3C)CO1 (configuration not stated)	1.4
72	COc1ccccc1/C=N/N(C(C)=O)c1nc(-c2ccc(F)cc2)cs1	i
73	Cc1nc(C)c(C(=O)N(c2ccc(C)c(C)c2)C(C(=O)NCc2ccco2)c2ccccc2)s1 (configuration not stated)	0.2
74	COC(=O)c1ccc(COc2nc(C)cc(C)c2C#N)o1	0.8
75	O=C(CSc1nnc(-c2cccnc2)o1)OC1CCCCC1	i
76	O=C(O)c1cc(CN2CCOCC2)oc1-c1ccccc1	0.5
77	COC(=O)c1cc2sc(Cl)cc2n1CC(=O)NCCC(C)C	0.9
78	Cc1cc(-c2ccco2)c(C#N)c2nc3ccccc3n12	1.4
79	O=C(NC1CCCC1)c1ccc(CNc2c(N3CCOCC3)c(=O)c2=O)cc1	0.0
80	COc1ccc(C(=O)O)cc1S(=O)(=O)Nc1cccc(C(F)(F)F)c1	0.8
81	O=c1c2ccsc2ncn1Cc1cccc(C(F)(F)F)c1	i
82	CCS(=O)(=O)NC(C)C(c1cccs1)N1CCN(c2ccc(F)cc2)CC1 (configuration not stated)	0.4
83	C/C(=C1\SC(N2CCOCC2)=NC1=O)c1ccc(C)cc1	1.7
84	O=C(CCN1CCc2ccccc2C(c2ccccc2)C1)c1ccc2c(c1)OCCO2 (configuration not stated)	i
85	CCc1[nH]nc2c1C1(CCOC1C)C(C#N)=C(N)O2 (configuration not stated)	i
86	Cc1cc(N2CCCC2)ccc1/C=N/n1cnnc1	1.0
87	CC(C)n1c(Sc2nccn2C)nc2c1c(=O)n(C)c(=O)n2C	2.3
88	CCCc1nc(SCc2ccc(Cl)cc2Cl)n[nH]1	i
89	COc1ccc(C)cc1NC(=O)CC(O)(C(F)(F)F)C(F)(F)F	i
90	COc1ccc(CCNc2nc(=O)[nH]nc2C)cc1OC	i
91	CCC(Sc1nc2sc(C(=O)OC)c(C)c2c(=O)n1N)C(=O)N(CC)CC (configuration not stated)	i
92	O=c1oc(Nc2ccccc2F)nc2ccccc12	0.3
93	CCOC(=O)c1c(NC(=O)Cc2cccs2)sc(C(=O)N2CCCCC2)c1C	i
94	CC1(C)C(C#N)=C(N)OC2=C1C(=O)CCC2	i
95	Cc1cc(=O)n2[nH]c(-c3ccc(F)cc3)cc2n1	i
96	Cc1cc(C)nc(Nc2n[nH]c(COc3ccc(Cl)cc3)n2)n1	0.5
97	Cc1ccc(OCC(O)CNS(=O)(=O)c2ccccc2C(=O)O)cc1 (configuration not stated)	0.8
98	O=C(COc1ccccc1Cl)NNC(=O)C1CCCO1 (configuration not stated)	0.1
99	Cc1c(/C=C/C(=O)c2ccccc2)cnn1C	i
100	COc1cccc(/C=C2\N=C(c3c(-c4ccccc4)noc3C)OC2=O)c1	i

# Next part.
No.	mol	H5N1 CPE
101	CCOC(=O)c1nnn(-c2nonc2N)c1CNc1ccccc1	1.2
102	COc1ccc(C2Nc3ccccc3C(=O)N2Cc2ccco2)cc1COc1ccc(NC(C)=O)cc1 (configuration not stated)	i
103	O=C(O)CCSc1nnc(-c2ccncc2)n1-c1ccccc1	1.1
104	CCCn1nc2cc(C(=O)NC3CCc4ccccc43)ccc2c1OCC (configuration not stated)	1.1
105	O=C(Nc1nc(-c2ccc(Cl)s2)cs1)c1cccs1	i
106	Cc1nn(Cc2ccc(Cl)cc2Cl)c(C)c1NC(=O)Cn1nc([N+](=O)[O-])c(Cl)c1C	i
107	CCOC(=O)C(N)CSC1CC(=O)N(c2ccc(C(=O)OC)cc2)C1=O (configuration not stated)	i
108	CCC(C)NC(=O)NC(=O)N(C1CCCCC1)S(C)(=O)=O (configuration not stated)	0.3
109	Cc1cc(S(=O)(=O)NCc2ccco2)c(C)s1	1.4
110	CCOC(=O)N1CCN(C(=O)CCCn2c(=S)[nH]c3ccccc3c2=O)CC1	i
111	Nc1nc(SCC(=O)N2CCc3ccccc3C2)[nH]c(=O)c1-c1ccccc1	0.8
112	CCOC(=O)N1CCC(N2CC34C=CC(O3)C(C(=O)Nc3ccc(C(C)C)cc3)C4C2=O)CC1 (configuration not stated)	1.1
113	CCC1(C)OC(=O)N2CCc3c(C)[nH]c4c(C)ccc(c34)C21C (configuration not stated)	i
114	NC(=O)c1sc(=S)n(-c2ccc(Br)cc2)c1N	i
115	O=C(CN(Cc1ccc2c(c1)OCO2)C(=O)CNS(=O)(=O)c1ccccc1)NCC1CCCO1 (configuration not stated)	i
116	O=C(Oc1cccnc1)c1ccc(Cl)cc1	0.1
117	O=[N+]([O-])c1ccc(Sc2nc3ccccc3o2)c([N+](=O)[O-])c1	2.0
118	CCCCCCC1CC(CSC(=N)N)OC1=O (configuration not stated)	i
119	COC(=O)/C=c1/s/c(=C(/C#N)C(=O)N2CCOCC2)n(-c2ccccc2)c1=O	0.1
120	COc1ccc(C2C(C#N)=C(N)N(c3sc4c(c3C#N)CCCC4)C3=C2C(=O)CC(C)(C)C3)cc1OC (configuration not stated)	0.4
121	Fc1ccc(CNc2nc3ccccc3n3cnnc23)cc1	2.2
122	CCOc1ccc(CCNC(=O)CN(C)S(=O)(=O)c2ccc3c(c2)CCC(=O)N3)cc1OCC	1.0
123	CCN(CC)C(=O)C1CCCN(c2ncnc3c2cnn3-c2cccc(C)c2)C1 (configuration not stated)	i
124	CCOc1cc(S(=O)(=O)NCCc2ccccc2C)c(OCC)cc1-n1cnnn1	2.2
125	C/C(CC(=O)Nc1ccccn1)=N\NC(=O)Cc1cccc2ccccc12	i
126	COC(=O)C(C)N(C#N)c1nc(NC(C)C)nc(SC)n1 (configuration not stated)	0.7
127	COc1cccc(/C=N\NC(=O)c2cc(OCC(F)(F)F)ccc2OCC(F)(F)F)c1	0.1
128	CCOc1ccc2[nH]c(=O)c(C(c3nnnn3Cc3ccco3)N3CCC(C)CC3)cc2c1 (configuration not stated)	0.1
129	Cc1cccc(Cn2c(Sc3nc(C)cs3)nc3c2c(=O)[nH]c(=O)n3C)c1	0.8
130	CCc1nnc(NC(=O)c2ccc(COc3ccc(C)cc3)o2)s1	i
131	CCCS(=O)(=O)n1nc(-c2ccc(OC)cc2)cc1N	0.8

# Screening results deposited in PubChem by SRMLSC.
